S aureus helic: blocks Staphylococcus aureus DNA helicase; 120,000 compounds, 0.05% hits; purified S. aureus helicase, fluorescence unwinding assay; about half of the hits fall short of the stated cut; inhibition, %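 (tested at about 80 µM)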; AID 485395;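 active = both duplicates at 50% or more, or one of them with a favoured structure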;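 also: 0% = mean of negative control wells and 100% = mean of positive control wells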
MgrA DNA FP: alters Staphylococcus aureus MgrA binding to DNA; 84,000 compounds, 0.13% hits; fluorescence polarization; inhibition, %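 (about 10 µg/mL by stock and volumes)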; AID 602314;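 active = above 50% in either of two replicates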;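 also: 0% = protein plus DNA without compound and 100% = DNA alone without protein; higher means less MgrA bound to DNA so lower polarization; one replicate is shown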
Active calls of the source: *; / = no result given; & = joins results of further samples.

Second line of a record – S aureus helic	MgrA DNA FP
- Cc1cc(C(=O)OCCCc2nc(-c3ccccc3)no2)c2ccccc2n1
→ 34.0	/
- CCOC(=O)c1c(C)oc2c1c1c(c3ccccc32)OCN(CCC(=O)O)C1
→ 1.0	/
- CC(CNS(=O)(=O)c1ccc(-n2cccn2)cc1)c1ccccc1 (stereo not drawn)
→ 6.0	1.2
- CN(CC(=O)Nc1ccccc1Cl)C(=O)c1cc(=O)[nH]c2ccccc12
→ -12.0	/
- COC(=O)C1CCN(Cc2csc(-c3ccccc3OC)n2)CC1
→ -31.0	/
- CCN(CC)Cc1ccc(C(=O)NN)o1
→ -15.0	/
- O=C(O)c1n[nH]c(=S)n1C1CC1
→ -1.0	/
- CC(C)OC(=O)CSc1nnnn1C
→ 17.0	-1.6
- CCCCCCCC/C=C\CCCCCCCC(=O)OC[C@@H](O)COP(=O)(O)O
→ /	-1.4
- CCOC(=O)/C(C#N)=C/Nc1ccc2oc(=O)c(NC(C)=O)cc2c1
→ -4.0	/
- O=C(Nc1ccc(S(=O)(=O)Nc2nccs2)cc1)c1cc2ccccc2oc1=O
→ 3.0	-0.4
- C(=N\n1cnnc1)/c1ccccn1
→ 4.0	-2.5
- N#CC1=C(N)N(N2CCOCC2)C2=C(C(=O)CC(c3ccccc3)C2)C1c1ccc(Cl)cc1 (stereo not drawn)
→ -8.0	/
- Cc1nnc(N2C(=O)C(=O)/C(=C(/O)c3ccc(OC(C)C)cc3)C2c2ccco2)s1 (stereo not drawn)
→ 14.0	1.9
- Cc1ccc(SCC(=O)N2CCc3ccccc32)cc1
→ 14.0	0.8
- CCOC(=O)c1sc(NC(=O)Cn2nc([N+](=O)[O-])c([N+](=O)[O-])c2C)c(C(=O)OCC)c1C
→ /	1.3
- OC1(c2ccccn2)COc2ccccc2O1 (stereo not drawn)
→ -2.0&-4.0	-2.1
- CCC(CC)NC(=O)Nc1ccccc1C
→ 2.0	-3.9
- CCn1c(SCc2nnc(-c3ccccc3)o2)nc2sc(C)c(C)c2c1=O
→ 6.0	/
- O=C1CC(Nc2ccc(N3CCOCC3)cc2)C(=O)N1c1cccc(C(F)(F)F)c1 (stereo not drawn)
→ -10.0	/
- CCc1nn2c(C)cc(=O)[nH]c2c1C
→ -13.0	0.2
- CNC(=O)c1ccc(OC)c(S(=O)(=O)NC)c1
→ -7.0	-1.1
- COc1ccc(CCNc2nc(SCC(=O)c3ccc(F)cc3)nc3ccccc23)cc1OC
→ 12.0	0.2
- Cn1c(SCC(=O)c2ccc(Cl)cc2)nnc1-c1ncc(C(F)(F)F)cc1Cl
→ /	0.5
- ON=C(c1cccs1)c1cccs1
→ /	-1.7
- O=S1(=O)CCN2N=C(c3ccccc3)C(c3ccccc3)=NC2=N1
→ -16.0	/
- S=C(/N=c1/sccn1Cc1ccccc1)NC1CC1
→ -6.0	/
- COc1ccccc1/C=C1\SC(=S)N(CCC(=O)Nc2ccc(S(N)(=O)=O)cc2)C1=O
→ /	1.0
- CCOc1ccc(NC(=O)C2CC(=O)NC(=Nc3ccccc3)S2)cc1 (stereo not drawn)
→ -1.0	1.8
- CCOC(=O)c1c(CS(=O)(=O)Cc2ccc(Cl)cc2)oc2c(F)c(F)c(F)c(F)c12
→ /	2.5
- CCn1c(-c2cccs2)nc2ccccc21
→ 18.0	/
- Cc1cc(C(=O)Cn2cc(S(=O)(=O)N(C)C)ccc2=O)c(C)n1-c1ccc2c(c1)OCO2
→ -4.0	/
- CN1CCc2nc(NC(=O)CC3Sc4ccccc4NC3=O)sc2C1 (stereo not drawn)
→ -8.0	/
- Cc1sc(NC(=O)C2CC2)c(C(N)=O)c1C
→ 6.0	/
- CCN1CCCC1CNC(=O)CS(=O)Cc1nc(-c2ccc(OC)c(OC)c2)oc1C (stereo not drawn)
→ 11.0	/
- Cc1ccccc1NC(=O)C(CC(C)C)N1C(=O)c2ccccc2C1=O (stereo not drawn)
→ 10.0	1.6
- CC(=O)N1CCC2(CC1)OC(=O)C(C)=C2C(=O)N1CCOCC1
→ 18.0	/
- Cc1cc2c(c(=O)n1CCN(C)C)C(c1ccncc1)C(C#N)=C(N)O2 (stereo not drawn)
→ 5.0	0.5
- CC(=O)Nc1nc2c(C)cccc2s1
→ 17.0	/
- Cn1nc(OC(C)(C)C(=O)Nc2ccc(Cl)cc2Cl)cc1C(F)(F)F
→ /	-0.9
- COC(=O)c1cc(CN2CCOCC2)ccc1O
→ 10.0	/
- O=C1CC(c2ccccc2OCc2ccccc2)c2cc3c(cc2N1)OCCO3 (stereo not drawn)
→ 10.0	/
- Cc1cc2c(n1-c1ccc(C(=O)O)cc1)CCCC2
→ -26.0	/
- CC1(C)Cc2c(sc3c2c(=O)n(Cc2ccccc2)c2nncn32)CO1
→ 3.0	1.8
- COc1ccc(-n2ccnc(NCCc3ccccc3)c2=O)cc1
→ 7.0	/
- O=C(Nc1nc2ccccc2s1)C1c2ccccc2Oc2ccccc21
→ 10.0	-0.8
- O=C1CN2C(=Nc3ccc(Cl)cc3C2c2ccccc2)CN1 (stereo not drawn)
→ 8.0	4.4
- CCc1cc(=O)oc2cc(OCC(=O)c3ccc(F)cc3)ccc12
→ -13.0	-0.6
- CCOC(=O)C(Cc1c[nH]c2ccccc12)NC(=O)CCCCCN1C(=O)c2ccccc2C1=O (stereo not drawn)
→ /	-1.8
- COc1ccc(Cl)cc1NC(=O)c1sc2nc(C)n(C)c(=O)c2c1C
→ 0.0	0.7
- CC(=O)Nc1ccc(NC(NC(=O)c2cccs2)C(=O)c2ccccc2)cc1 (stereo not drawn)
→ 9.0	-0.3
- Nn1c(SCc2cc(=O)oc3cc(O)c(O)cc23)nnc1-c1ccncc1
→ 25.0	/
- Cn1c(CSc2cccs2)nnc1SCC(=O)Nc1ccc(Cl)cc1
→ /	-1.1
- Cc1ccc(SC2CN(C(c3ccccc3)c3ccccc3)C2)cc1
→ /	1.1
- Cc1cccc(-n2cnc3c(c2=O)c2nc4ccccc4nc2n3CCC(C)C)c1
→ 9.0	-3.4
- OCCNc1ccc(NCCO)nn1
→ /	-0.5
- C=CCNC(=O)c1ccccc1NC(=O)C1COc2ccccc2O1 (stereo not drawn)
→ 10.0	-1.7
- O=c1c2c(nc(NCCCO)n1Cc1ccccc1)-c1ccccc1CC21CCCC1
→ 35.0	/
- CC(=O)NCc1n[nH]c(=O)c2ccccc12
→ 4.0	/
- Cc1ccc(C2=NS(=O)(=O)N(C)C(C(=O)Nc3cc(C)n(CC(=O)N4CCOCC4)n3)=C2)cc1
→ -18.0	/

(further entries)
Second line of a record – S aureus helic	MgrA DNA FP
- O=C(CSc1ncn[nH]1)Nc1cccc2ccccc12
→ 7.0	1.8
- O=C(COC(=O)/C=C/c1cccc(Cl)c1)NC1CCCCC1
→ -1.0	-0.3
- N/C(=N\O)c1ccc(NC(=O)c2ccccn2)cc1
→ 3.0	-1.4
- c1ccc(C23OC4C5C6CC(C7C6C4C72)C53)cc1 (stereo not drawn)
→ /	-0.3
- CC1=CC(C)(C)NC(=S)N1c1ccc(C(C)C)cc1
→ 6.0	-2.6
- Cc1cc(C)c(S(=O)(=O)N(CC#N)CC#N)c(C)c1
→ 16.0	-0.1
- O=C(CN1CCc2sccc2C1c1cccs1)N1CCC(c2ccccc2)=N1 (stereo not drawn)
→ -5.0	/
- CC(NC(=O)c1ccc(-c2ccccc2)cc1)C(=O)O (stereo not drawn)
→ -1.0	17.7
- O=C(C1CC(=O)N(c2ccc(Cl)cc2)C1)N1CCN(Cc2ccc3c(c2)OCO3)CC1 (stereo not drawn)
→ 18.0	-2.9
- O=C(NCCc1cccs1)c1ccc(Cl)cc1
→ -18.0	/
- CCOC(=O)c1sc(N2C(=O)C(O)=C(C(=O)c3ccco3)C2c2ccco2)nc1C (stereo not drawn)
→ -21.0	/
- N#Cc1ccc(C#N)c(-c2ccccc2)c1
→ 3.0	3.6
- O=C(COc1ccc(-c2ccccc2)cc1)NCc1cccnc1
→ 9.0	0.6
- Cc1nc(C(F)(F)F)ccc1C(=O)N1CCC(n2cccc2)CC1
→ -17.0	/
- Cc1nnsc1C(=O)N1CCN(C=O)CC1
→ 7.0	/
- N#CCc1nc2ccccc2c(=O)[nH]1
→ 4.0	/
- COc1ccc(CC(=O)N(Cc2nc(-c3ccc(Cl)cc3)no2)C(C)C)cc1OC
→ 10.0	-0.8
- COc1ccccc1OC(=O)c1sccc1C
→ 20.0	/
- Cc1ccc(S(=O)(=O)NC(=O)N2CCCC2)cc1
→ /	-2.5
- COC(=O)c1cnc(N2CCN(c3ncc(C(=O)OC)c(C(F)(F)F)n3)CC2)nc1C(F)(F)F
→ 8.0	/
- COc1ccc2c(c1)C(=O)/C(=C/c1ccc(N(C)C)cc1)CC2
→ -78.0	-3.2
- CCc1cccc(C)c1NC(=O)C1COc2ccccc2O1 (stereo not drawn)
→ 7.0	1.8
- COc1ccc2oc(=O)c(-c3ccccc3)cc2c1
→ 16.0	-1.9
- O=C1C2C3C=CC(C3)C2C(=O)N1CCN1CCN(S(=O)(=O)c2ccc3ccccc3c2)CC1 (stereo not drawn)
→ /	-2.4
- O=C(NCC1CCCO1)C1CC(c2ccc(F)cc2)=NO1 (stereo not drawn)
→ 1.0	-2.6
- Cc1ccccc1SCC(=O)OC(C)C(N)=O (stereo not drawn)
→ -8.0	/
- CCOC(=O)c1csc(Cc2ccc(-c3csnn3)cc2)n1
→ /	-1.4
- Cc1ccc(S(=O)(=O)/N=C(\c2ccccc2)N(C)S(=O)(=O)c2ccc(C)cc2)cc1
→ 2.0	-0.6
- CN1CCSc2ccc(C(=O)NCCN3CCCC3)cc21
→ 10.0	9.0
- CCCCC(=O)Nc1ccc(N2CCN(C(=O)CCC)CC2)c(Cl)c1
→ 9.0	-4.5
- CCOC(=O)c1sc2nc(C)nc(N3CCC(C)CC3)c2c1C
→ 4.0	1.4
- c1ccc2c(c1)CCCC2C1=NCCN1 (stereo not drawn)
→ /	-0.8&3.9
- CN(C)/C=C1/C(=O)N(c2nc3ccccc3s2)N=C1C(F)(F)F
→ /	4.4
- FC(F)(F)c1nc(Sc2ncccc2C(F)(F)F)n[nH]1
→ /	-2.4
- COc1cccc(NC=C2C(=O)OC(C)(C)OC2=O)c1
→ -1.0	/
- O=C(/C=C/c1ccc(S(=O)(=O)N2CCCCCC2)cc1)OCc1nnc(-c2ccccc2)o1
→ 0.0	/
- CCc1ccccc1N=C1SCC(=O)N1C
→ 19.0	-0.2
- O=C(Cn1c(-c2cccs2)cc2ccccc21)NCc1cccs1
→ -7.0	/
- O=C(/C=C/c1ccco1)NCc1ccccc1C(F)(F)F
→ -3.0	0.5
- Cc1nc(NCC(=O)O)c2c3c(sc2n1)CCCC3
→ 2.0	-1.4
- Nc1nc(C2CCCCC2)cs1
→ 3.0	-1.1
- COC(=O)c1cc2sc(Cl)cc2n1CC(=O)N1CCCc2ccccc21
→ 16.0	0.8
- COc1ncnc(Cl)c1N
→ -5.0	0.1
- O=C(O)COCC(=O)N1CCN(c2cc(C(F)(F)F)nc3ccccc23)CC1
→ /	-7.6
- CC(=O)N1CCN(C(=O)CSc2nc3cc(Cl)ccc3s2)CC1
→ 4.0	/
- COC(=O)c1cc2c(cc1NC(=O)Cn1ncc3c1-c1cc(C)ccc1OC3)OCO2
→ 7.0	/
- NC(N)=NCc1cccc(I)c1
→ /	4.3
- C=CCn1c(SCC(=O)Nc2sc3c(c2C(N)=O)CCC3)nc2sc(C)c(C)c2c1=O
→ -5.0	/
- O=C(Cc1nc2ccccc2[nH]1)Oc1ccccc1
→ -2.0	-1.4
- COC(=O)c1ccc(/C=C2/Oc3ccccc3N(Cc3ccccc3F)C2=O)cc1
→ 12.0	1.7
- O=C(NCc1ccc2c(c1)OCO2)C1CCCN1C(=O)NCc1ccccc1 (stereo not drawn)
→ 6.0	-2.2
- COc1cccc2c1CCN(Cc1ccccc1)C2=O
→ 19.0	/
- O=C(CCc1nc2cccnc2n1-c1ccccc1)NC1CCCCC1
→ 11.0	/
- CC1CN(C(=O)COC(=O)c2cccc3ccccc23)CC(C)O1 (stereo not drawn)
→ -13.0	/
- CC(C)c1ccccc1OCC(O)CN(C)C1CCCCC1 (stereo not drawn)
→ -19.0	/
- COC(=O)CNC(c1ccccc1)c1cc(C)ccc1NC(=O)c1ccccc1 (stereo not drawn)
→ -11.0	/
- O=C1c2ccccc2C(=O)N1CCCCn1nnc(-c2ccc(F)cc2)n1
→ 21.0	/
- CCc1ccccc1Nc1nc(N)nc(CNCc2ccc(F)cc2)n1
→ -9.0	/
- CN(Nc1ccccc1)C1=C(C#N)CN(C2CCCCC2)C1=O
→ 0.0	-1.6
- O=c1cc(CSc2nc3ccccc3c(=O)n2-c2ccc(F)cc2)c2ccccc2[nH]1
→ 6.0	/

Additional structures.
Second line of a record – S aureus helic	MgrA DNA FP
- NC(=O)c1ccc(NC(=O)Cc2coc3cc4c(cc23)CCC4)cc1
→ -6.0	/
- COc1ccc(-c2cc(=O)oc3cc4occ(C)c4cc23)cc1
→ 6.0	/
- O=C(/C=C/C=C/c1ccc2c(c1)OCO2)N1CCCCC1
→ /	-0.8&-0.3
- CN(NC(=O)NC(=O)c1c(Cl)cccc1Cl)c1cccc(F)c1C#N
→ /	0.9
- Cc1nc(-c2cc(C#N)c(Sc3ccccc3)nc2C)cs1
→ /	1.2
- O=C1C=C(NCc2ccco2)CCC1
→ -28.0	1.4
- CCOc1ccccc1C(=O)NC(C(=O)OC)C(C)C (stereo not drawn)
→ -12.0	/
- O=C(CNc1cccc(C(F)(F)F)c1)N/N=C/c1ccc2c(c1)OCO2
→ 21.0	/
- CNC(=O)COc1ccccc1C(F)(F)F
→ -2.0	-1.4
- COc1cc(-c2n[nH]c(=S)n2C)cc(OC)c1OC
→ 18.0	0.8
- CC1CCCCN1S(=O)(=O)c1ccc(N)cc1 (stereo not drawn)
→ 6.0	-1.5

Reformatted as tab-separated lines: entries from further up.
SMILES	S aureus helic	MgrA DNA FP
CCOc1ccccc1C(=O)NC(C(=O)OC)C(C)C (stereo not drawn)	-12.0	/
O=C(CNc1cccc(C(F)(F)F)c1)N/N=C/c1ccc2c(c1)OCO2	21.0	/
CNC(=O)COc1ccccc1C(F)(F)F	-2.0	-1.4
COc1cc(-c2n[nH]c(=S)n2C)cc(OC)c1OC	18.0	0.8

The list is partial, so the mix of outcomes need not match the whole.
